# High-throughput results from PubChem.
# A1 apoptosis 2: A1 inhibition read as caspase activation; caspase activation, % (no concentration beside the values); MEF A1-2A-BIM cells, caspase-Glo luminescence, 3 h; percent of clofoctol response, DMSO zero; 24,000 tested, under 10 active; AID 2465; in the data active = caspase activation above about 5.9%;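 also: wells of about 30 µL received 50 nL stock; the first replicate is given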
#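 System: mouse embryonic fibroblasts co-expressing A1 and BIM (A1-2A-BIM), primed for A1 dependence; amount: 2500 cells/well; doses: 50 nL pinned compound; schedule: cells settled overnight, compound exposure 3 h at 37 °C, 5% CO2; detection: Caspase-Glo 3/7 luminescence, 1 h at room temperature; read-out: Caspase-3/7 activation, seen as rise in luminescence signal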
# Starred values were filed as active, the others as inactive.
# Sample of the layout, 7 compounds:
SMILES,A1 apoptosis 2
O=C(C1=C[C@@H](c2ccc(C(F)(F)F)cc2)C[C@@H](OCc2ccc(CO)cc2)O1)N1CCCCCCC1,0.3
Cc1ccc(S(=O)(=O)Nc2ccc3c(c2)C(=O)N([C@H](C)CO)C[C@@H](C)[C@@H](CN(C)Cc2ccc4c(c2)OCO4)O3)cc1,-0.6
CC(C)NC(=O)Nc1ccc2c(c1)C(=O)N([C@H](C)CO)C[C@H](C)[C@@H](CN(C)C(=O)Nc1ccccc1)O2,-1.5
C[C@@H]1CN([C@H](C)CO)C(=O)c2cccc(NS(=O)(=O)c3ccc(F)cc3)c2O[C@H]1CN(C)C(=O)Nc1ccc(F)cc1,-0.3
C[C@H](CO)N1C[C@H](C)[C@H](CN(C)Cc2ccncc2)Oc2ncc(-c3ccc(F)cc3)cc2C1=O,0.3
O=C(N/N=C/C[P+](c1ccccc1)(c1ccccc1)c1ccccc1)c1ccccc1O,0.1
C[C@H]1CN([C@@H](C)CO)C(=O)c2cc(NS(=O)(=O)c3cccs3)ccc2O[C@@H]1CN(C)Cc1ccc(Oc2ccccc2)cc1,-1.2

# This part in full (from the top)
SMILES,A1 apoptosis 2
O=C(C1=C[C@@H](c2ccc(C(F)(F)F)cc2)C[C@@H](OCc2ccc(CO)cc2)O1)N1CCCCCCC1,0.3
Cc1ccc(S(=O)(=O)Nc2ccc3c(c2)C(=O)N([C@H](C)CO)C[C@@H](C)[C@@H](CN(C)Cc2ccc4c(c2)OCO4)O3)cc1,-0.6
CC(C)NC(=O)Nc1ccc2c(c1)C(=O)N([C@H](C)CO)C[C@H](C)[C@@H](CN(C)C(=O)Nc1ccccc1)O2,-1.5
C[C@@H]1CN([C@H](C)CO)C(=O)c2cccc(NS(=O)(=O)c3ccc(F)cc3)c2O[C@H]1CN(C)C(=O)Nc1ccc(F)cc1,-0.3
C[C@H](CO)N1C[C@H](C)[C@H](CN(C)Cc2ccncc2)Oc2ncc(-c3ccc(F)cc3)cc2C1=O,0.3
O=C(N/N=C/C[P+](c1ccccc1)(c1ccccc1)c1ccccc1)c1ccccc1O,0.1
C[C@H]1CN([C@@H](C)CO)C(=O)c2cc(NS(=O)(=O)c3cccs3)ccc2O[C@@H]1CN(C)Cc1ccc(Oc2ccccc2)cc1,-1.2
COc1ccc(S(=O)(=O)N(C)C[C@H]2OCCCC[C@H](C)Oc3ccc(NC(=O)NC4CCCCC4)cc3C(=O)N([C@@H](C)CO)C[C@H]2C)cc1,0.0
Cc1cccc(CN(C)C[C@@H]2OCc3cn(nn3)CCCC(=O)N([C@H](C)CO)C[C@H]2C)c1,-0.3
C[C@H]1CCCCO[C@@H](CN(C)CC2CCCCC2)[C@@H](C)CN([C@@H](C)CO)C(=O)c2cc(NC(=O)CCC(F)(F)F)ccc2O1,0.9
C[C@@H]1CN([C@@H](C)CO)C(=O)c2cccc(NC(=O)Nc3ccc(C(F)(F)F)cc3)c2O[C@H]1CN(C)CC1CC1,-0.2
C[C@]12CCC3C4(C=CC5(C=C4C(=O)c4cc6ccccc6s4)C[C@@H](O)CC[C@]35C)C1CC[C@@]2(O)CN1CCC(n2c(=O)[nH]c3ccccc32)CC1 (some centres not stated),-0.9
C[C@@H]1CCCCO[C@H](CN(C)Cc2ccccc2)[C@@H](C)CN([C@H](C)CO)C(=O)c2cc(NC(=O)NC3CCCCC3)ccc2O1,0.9
C[C@@H]1CCCCO[C@H](CN(C)Cc2ccc3c(c2)OCO3)[C@@H](C)CN([C@H](C)CO)C(=O)c2cc(NS(C)(=O)=O)ccc2O1,0.1
C[C@H](CO)N1C[C@H](C)[C@H](CN(C)C(=O)Nc2ccccc2)Oc2c(NC(=O)c3ccc(-c4nccs4)cc3)cccc2C1=O,-0.8
Cc1cc(C(=O)Nc2cccc3c2O[C@H](CN(C)Cc2ccc(-c4ccccc4)cc2)[C@@H](C)CN([C@@H](C)CO)C3=O)n(C)n1,-0.8
C[C@@H]1CN([C@@H](C)CO)C(=O)c2cc(NC(=O)NC3CCCCC3)ccc2O[C@@H](C)CCCCO[C@H]1CN(C)C(=O)Nc1ccc2c(c1)OCO2,0.9
C[C@@H]1CCCCO[C@@H](CN(C)S(=O)(=O)c2cccs2)[C@@H](C)CN([C@@H](C)CO)C(=O)c2cc(NC(=O)CCCN(C)C)ccc2O1,0.4
C[C@@H]1CCCCO[C@@H](CN(C)Cc2ccc(C(=O)O)cc2)[C@@H](C)CN([C@@H](C)CO)C(=O)c2cc(NC(=O)Cc3ccccc3)ccc2O1,1.1
Cc1cc(C(=O)Nc2cccc3c2O[C@@H](CN(C)Cc2ccc(C(F)(F)F)cc2)[C@H](C)CN([C@H](C)CO)C3=O)n(C)n1,0.2
Cc1noc(C)c1NC(=O)N(C)C[C@H]1Oc2ccc(NC(=O)C3CC3)cc2CC(=O)N([C@@H](C)CO)C[C@@H]1C,-0.7
C[C@H]1CN([C@@H](C)CO)C(=O)c2cc(NS(=O)(=O)c3ccc(Cl)cc3)ccc2O[C@H]1CN(C)C,-1.2
Cc1ccc(S(=O)(=O)N(C)C[C@H]2Oc3ccc(NC(=O)NC4CCCCC4)cc3CC(=O)N([C@H](C)CO)C[C@H]2C)cc1,-0.3
C[C@H](CO)N1C[C@H](C)[C@@H](CN(C)Cc2ccc(-c3ccccc3)cc2)Oc2ccc(NS(=O)(=O)c3ccc(Cl)cc3)cc2CC1=O,2.5
C[C@@H]1CN([C@H](C)CO)C(=O)c2cccc(NS(=O)(=O)c3cccs3)c2O[C@H]1CN(C)Cc1ccc(C(=O)Nc2ccccc2N)cc1,0.1
Cc1ccc(S(=O)(=O)N(C)C[C@H]2Oc3c(NC(=O)c4cc(C)nn4C)cccc3C(=O)N([C@H](C)CO)C[C@H]2C)cc1,0.8
COc1ccc(NC(=O)N(C)C[C@@H]2Oc3c(NC(=O)C4CCCCC4)cccc3C(=O)N([C@@H](C)CO)C[C@H]2C)cc1,-0.5
CNC[C@@H]1Oc2ccc(NC(=O)C3CC3)cc2CC(=O)N([C@H](C)CO)C[C@H]1C,1.3
C[C@@H]1CN([C@H](C)CO)C(=O)c2cc(NC(=O)Nc3ccc(F)cc3)ccc2O[C@H]1CN(C)Cc1ccncc1,-0.4
C[C@@H]1CN([C@@H](C)CO)C(=O)c2cc(NC(=O)NC3CCCCC3)ccc2O[C@H]1CN(C)Cc1ccc(C(=O)O)cc1,-0.2
C[C@H](CO)N1C[C@H](C)[C@H](CN(C)C(=O)Nc2ccc(C(F)(F)F)cc2)Oc2ccc(NS(C)(=O)=O)cc2CC1=O,0.3
Cc1noc(C)c1NC(=O)Nc1cccc2c1O[C@H](CN(C)C(=O)NC1CCCCC1)[C@H](C)CN([C@H](C)CO)C2=O,-0.3
C[C@H]1CN([C@@H](C)CO)C(=O)Cc2cc(NC(=O)Cc3ccccc3)ccc2O[C@@H]1CN(C)Cc1ccncc1,-0.7
COc1ccc(S(=O)(=O)Nc2ccc3c(c2)C(=O)N([C@@H](C)CO)C[C@@H](C)[C@H](CN(C)C(=O)Nc2ccc4c(c2)OCO4)OCCCC[C@@H](C)O3)cc1,0.9
Cc1noc(C)c1S(=O)(=O)N(C)C[C@@H]1Oc2ccc(NS(=O)(=O)c3cn(C)cn3)cc2C(=O)N([C@@H](C)CO)C[C@@H]1C,-1.0
C[C@@H]1CCCCO[C@H](CN(C)C(=O)CCC(F)(F)F)[C@@H](C)CN([C@@H](C)CO)C(=O)c2cc(NC(=O)CCCN(C)C)ccc2O1,0.4
C[C@H](CO)N1C[C@H](C)[C@@H](CN(C)Cc2ccc(C(F)(F)F)cc2)Oc2ccc(NC(=O)Nc3ccc4c(c3)OCO4)cc2C1=O,-0.5
Cc1ccc(S(=O)(=O)Nc2ccc3c(c2)C(=O)N([C@@H](C)CO)C[C@@H](C)[C@@H](CN(C)S(=O)(=O)c2cn(C)cn2)O3)cc1,0.6
C[C@H]1CN([C@@H](C)CO)C(=O)c2cc(NS(=O)(=O)c3cccs3)ccc2O[C@@H]1CN(C)Cc1ccc(C(=O)Nc2ccccc2N)cc1,0.2
C[C@@H]1CN([C@@H](C)CO)C(=O)Cc2cc(NS(=O)(=O)c3cn(C)cn3)ccc2O[C@H]1CN(C)Cc1ccc(Oc2ccccc2)cc1,-1.6
COc1ccc(S(=O)(=O)Nc2cccc3c2O[C@H](CN(C)S(=O)(=O)c2c(C)noc2C)[C@H](C)CN([C@@H](C)CO)C3=O)cc1,-1.4
C[C@@H]1CN([C@@H](C)CO)C(=O)c2cccc(N(C)C)c2O[C@H]1CN(C)S(=O)(=O)c1cccs1,0.9
Cc1noc(C)c1NC(=O)Nc1cccc2c1O[C@@H](CN(C)C(=O)Nc1ccc(F)cc1)[C@@H](C)CN([C@H](C)CO)C2=O,-0.2
C[C@H](CO)N1C[C@H](C)[C@@H](CN(C)C(=O)Nc2cccc3ccccc23)Oc2ccc(N(C)C)cc2CC1=O,-1.7
COc1ccc(CN(C)C[C@H]2Oc3ccc(NS(=O)(=O)c4cccs4)cc3C(=O)N([C@@H](C)CO)C[C@H]2C)cc1,0.4
C[C@@H]1CN([C@@H](C)CO)C(=O)Cc2cc(NC(=O)C3CC3)ccc2O[C@H]1CN(C)C,0.5
CNC[C@H]1Oc2ccc(NC(=O)Nc3c(C)noc3C)cc2CC(=O)N([C@H](C)CO)C[C@@H]1C,-0.1
C[C@@H]1CN([C@H](C)CO)C(=O)Cc2cc(NS(C)(=O)=O)ccc2O[C@H]1CN(C)CC1CC1,-0.1
C[C@H]1CN([C@@H](C)CO)C(=O)Cc2cc(NS(=O)(=O)c3cccs3)ccc2O[C@@H]1CN(C)Cc1ccc2c(c1)OCO2,0.4
COc1ccc(S(=O)(=O)N(C)C[C@@H]2Oc3c(NC(=O)Nc4c(C)noc4C)cccc3C(=O)N([C@@H](C)CO)C[C@H]2C)cc1,1.0

# Next part.
SMILES,A1 apoptosis 2
C[C@@H]1CN([C@@H](C)CO)C(=O)c2cc(NC(=O)Nc3ccc(F)cc3)ccc2O[C@@H]1CN(C)CC1CCCCC1,-0.4
Cc1ccc(S(=O)(=O)N(C)C[C@H]2Oc3ccc(NS(=O)(=O)c4cccs4)cc3CC(=O)N([C@H](C)CO)C[C@H]2C)cc1,-0.8
C[C@@H]1CN([C@@H](C)CO)C(=O)c2cc(NC(=O)Nc3cccc4ccccc34)ccc2O[C@@H]1CN(C)C(=O)Nc1ccccc1,-0.7
C[C@H](CO)N1C[C@H](C)[C@H](CN(C)Cc2cccnc2)OCc2cn(nn2)CCCC1=O,0.7
Cc1noc(C)c1NC(=O)N(C)C[C@H]1Oc2ccc(NC(=O)C3CC3)cc2C(=O)N([C@H](C)CO)C[C@H]1C,-2.1
C[C@@H]1CN([C@@H](C)CO)C(=O)c2cc(NC(=O)C3CCCCC3)ccc2O[C@H]1CN(C)Cc1ccc(C(=O)O)cc1,-0.2
C[C@@H]1CN([C@H](C)CO)C(=O)Cc2cc(NC(=O)NC3CCCCC3)ccc2O[C@@H]1CN(C)C(=O)Nc1ccccc1,-0.3
C[C@@H]1CCCCO[C@H](CN(C)C(=O)Nc2ccc(F)cc2)[C@@H](C)CN([C@H](C)CO)C(=O)c2cc(NS(=O)(=O)c3cccs3)ccc2O1,-0.9
C[C@@H]1CN([C@@H](C)CO)C(=O)CCCn2cc(nn2)CO[C@@H]1CN(C)C(=O)Nc1cccc(C(F)(F)F)c1,0.6
COCCOC(=O)N1C(=O)[C@@]2(c3cc(C#CC4(O)CCCCCC4)ccc31)[C@H](C(=O)N1CCN(c3ncccn3)CC1)[C@H]1C(=O)O[C@H](c3ccccc3)[C@H](c3ccccc3)N1[C@@H]2c1ccc(O)cc1,0.0

# Reprinted from the part before: 2 entries, then new ones.
SMILES,A1 apoptosis 2
C[C@@H]1CN([C@@H](C)CO)C(=O)CCCn2cc(nn2)CO[C@@H]1CN(C)C(=O)Nc1cccc(C(F)(F)F)c1,0.6
COCCOC(=O)N1C(=O)[C@@]2(c3cc(C#CC4(O)CCCCCC4)ccc31)[C@H](C(=O)N1CCN(c3ncccn3)CC1)[C@H]1C(=O)O[C@H](c3ccccc3)[C@H](c3ccccc3)N1[C@@H]2c1ccc(O)cc1,0.0
C[C@H](CO)N1C[C@H](C)[C@@H](CN(C)Cc2ccc(Oc3ccccc3)cc2)Oc2ccc(NC(=O)Cc3ccccc3)cc2C1=O,0.1
C[C@H]1CN([C@@H](C)CO)C(=O)c2cccc(NC(=O)c3ccc(-c4nccs4)cc3)c2O[C@@H]1CN(C)C(=O)Nc1ccccc1,-0.8
COc1ccc(CN(C)C[C@@H]2Oc3ccc(NC(=O)Nc4ccc(F)cc4)cc3CC(=O)N([C@H](C)CO)C[C@@H]2C)cc1,-0.4
C[C@@H]1CN([C@@H](C)CO)C(=O)c2cccc(NS(=O)(=O)c3ccccc3)c2O[C@@H]1CN(C)C(=O)Nc1ccccc1,1.3
O=C(Nc1ccccc1)NC1(c2cn(CC(=O)N3CCN(c4ccccc4)CC3)nn2)CCCCC1,0.0
C[C@H](CO)N1C[C@H](C)[C@@H](CN(C)C(=O)NC2CCCCC2)Oc2c(NC(=O)NC3CCCCC3)cccc2C1=O,-0.3
C[C@H](CO)N1C[C@H](C)[C@@H](CN(C)S(=O)(=O)c2cn(C)cn2)Oc2ccc(NC(=O)CCCN(C)C)cc2C1=O,1.4
Cc1ccc(S(=O)(=O)N(C)C[C@@H]2OCCCC[C@H](C)Oc3ccc(NC(=O)Nc4c(C)noc4C)cc3C(=O)N([C@@H](C)CO)C[C@H]2C)cc1,-0.2
C[C@@H]1CN([C@@H](C)CO)C(=O)c2cc(NC(=O)Cc3ccccc3)ccc2O[C@H]1CN(C)C(=O)Nc1ccc2c(c1)OCO2,1.4
CCO[C@H]1OC(C(N)=O)=C[C@@H](c2ccc(Br)cc2)[C@@H]1CCCO,-1.0
C[C@H](CO)N1C[C@H](C)[C@@H](CN(C)C(=O)Nc2cccc3ccccc23)Oc2c(cccc2N(C)C)C1=O,0.0

# Not all compounds are listed; count on the stated rates, not on these rows.
